Bioassay records (PubChem BioAssay)
VACV mCherry inh – qHTS for Stage-Specific Inhibitors of Vaccinia Orthopoxvirus: mCherry Reporter Primary qHTS; AID 720579, 2013; Vaccinia virus mCherry reporter infection, fluorescence; about a quarter of the inactives have no number; 310,000 tested, 0.63% active; Potency, µM (highest dose often 36.5 µM), for the others: at the top dose activity change, negative = inhibition, most hits filed as inhibitors; active = well fitted inhibition curve with a large enough effect; inconclusive = small, poorly fitted or top-dose-only effect; inactive = no such curve, though single readings can be large or run the other way; tested in A549 cells; further: nearly all actives have a fitted effect of over 35% in size; inactives centre near -10
Vaccinia Venus – qHTS for Stage-Specific Inhibitors of Vaccinia Orthopoxvirus: Venus Reporter Primary qHTS; Potency, µM (highest dose often 36.5 µM), for inactives: at the top dose activity change, negative = inhibition, hits mostly inhibitors; AID 720580, 2013; Vaccinia virus Venus reporter expression, fluorescence; 330,000 tested, 0.46% active; active means well fitted inhibition curve with a large enough effect; inconclusive means small, poorly fitted or top-dose-only effect; inactive means no such curve, though single readings can be large or run the other way; tested in A549 cells; further: nearly all actives have a fitted effect of over 30% in size; inactives centre near -10
An asterisk follows results filed as active; i = inactive; u = inconclusive; x = not tested or not shown; [ ] = dose if it differs, or a comment. On the % scale 0 is the no-effect control and ±100 the full control effect; potency means the concentration at half of the fitted maximal effect.

Sample of the layout:
Molecule	VACV mCherry inh	Vaccinia Venus
COc1ccc(C(=O)N/N=C/c2ccccc2OC(=O)c2ccccc2)cc1	2µM*	u
Cn1c(=O)[nH]c(=O)c2c1nc(SCC(O)CO)n2Cc1ccccc1Cl (configuration not stated)	-2.6%	-17.2%

The listing, previewed entries included:
Molecule	VACV mCherry inh	Vaccinia Venus
COc1ccc(C(=O)N/N=C/c2ccccc2OC(=O)c2ccccc2)cc1	2µM*	u
Cn1c(=O)[nH]c(=O)c2c1nc(SCC(O)CO)n2Cc1ccccc1Cl (configuration not stated)	-2.6%	-17.2%
CCn1c(SCC(=O)Nc2ccc(C)cc2)nc2sc3c(c2c1=O)CCN(C)C3	-13.5%	-13.0%
CCNS(=O)(=O)c1cccc(C(=O)c2c(C)cc3ccccn23)c1	-26.4%	-14.9%
CON(C)C(=O)CC1(CN(Cc2ccccc2)C(=O)OC(C)(C)C)CCCCC1	5.8%	-10.1%
CC(C)(C)S(=O)(=O)N1Cc2cc(CO)cc(CCO)c2[C@H]1CCO	i	-2.8%
CCOC(=O)c1c(C)[nH]c(C)c1C(=O)COC(=O)c1cccs1	-8.7%	-7.0%
Cc1ccc(-c2nc(CS(=O)CC(=O)N3CCN(c4ncccn4)CC3)c(C)o2)cc1 (configuration not stated)	-15.2%	u
O=C1C=C(c2ccc(F)cc2OCc2ccccc2)C[C@@H](c2ccc(Cl)cc2)C1	-4.3%	u
O=C(c1cccs1)N1CCN(Cc2ccccc2[N+](=O)[O-])CC1	-21.3%	-18.7%
Cc1ccccc1NC(=O)CSc1nnc2ccc(-c3ccccn3)nn12	-10.7%	-7.6%
C[C@@H]1CN([C@@H](C)CO)C(=O)CCCn2nncc2CO[C@H]1CN(C)S(=O)(=O)c1cn(C)cn1	i	-10.5%
COc1cc(NC(=O)Cn2nc(C(F)(F)F)c3c2CCCC3)c(OC)cc1Cl	-11.7%[7.34 µM]	-9.2%[7.34 µM]
CCOC(=O)NC1C=CS(=O)(=O)C1 (configuration not stated)	x	-7.2%
CC(C)CSc1nnc(-c2ccccc2)c(-c2ccccc2)n1	-7.5%	2.7%
O=C(/C=C/c1ccco1)N/C(=C\c1ccccc1)C(=O)NCCc1nc2ccccc2[nH]1	-3.0%	-15.0%
Cc1c(Cl)cccc1NC(=O)Cn1cnc2nc3c(cc2c1=O)CCCC3	-14.9%[7.34 µM]	-10.8%[7.34 µM]
O=C(CSc1ccc(-c2nc3ccccc3[nH]2)cn1)Nc1ccc(S(=O)(=O)N2CCCC2)cc1	8.8%	-1.7%
O=C1CC(c2ccccc2)C(=O)N2C(=O)CC(c3ccccc3)C(=O)N12 (configuration not stated)	-10.7%	-0.5%
CCOC(=O)c1c(CSC(=N)N)n(-c2ccc(Br)cc2)c2cc(Br)c(OC(C)=O)cc12	-19.1%	-14.0%
COc1ccc(CC(=O)NCCc2sc(-c3ccc(Cl)cc3)nc2C)cc1OC	-4.3%	-2.9%
CC(Oc1ccc(F)cc1)C(=O)Nc1cccc(S(=O)(=O)N(C)c2ccccc2)c1 (configuration not stated)	-17.3%	u
O=C(NCc1ccco1)c1ccccc1	-9.7%	-5.4%
N/C(=N\S(=O)(=O)c1ccc(Cl)cc1)N1CCOCC1	-29.9%	5.4%
CC(C)c1ccc(N2C(=O)[C@@H]3Cc4ccccc4CN3C2=O)cc1	-0.3%	u
CCOC(=O)COc1ccccc1C1Nc2ccccc2C(=O)N1c1cccc(Cl)c1 (configuration not stated)	-10.3%	-15.3%
COc1ccccc1N1CCN(C(=O)CCc2nnc3ccc(N4CCCC4)nn23)CC1	-6.6%[7.34 µM]	-3.6%[7.34 µM]
O=C(c1ccc2snnc2c1)N1CCN(c2ccccn2)CC1	i	-12.6%
Cc1ccnc(NCc2ccc(Cl)cc2)c1	-6.9%	-19.6%
CCC1CCCCN1CCCNC(=O)CCNC(=O)Cn1cnc2ccccc2c1=O (configuration not stated)	i	-9.6%
CCn1nc(C(=O)Nc2ccc(S(=O)(=O)Nc3nccs3)cc2)c2ccccc2c1=O	-9.8%	-2.3%
Cc1cc(C)nc(Oc2ccc(Br)cc2Br)n1	i	-0.6%
CCOC(=O)c1c(Nc2ccccc2N)cc(C)nc1C	-14.9%	-12.7%
O=C(CCSc1nnc2ccc3ccccc3n12)Nc1ccc(F)cc1	-20.6%	-25.3%
CCC(=O)N1CCc2cc(Br)cc(S(=O)(=O)N3CCN(c4cc(C)ccc4C)CC3)c21	7.5%	4.3%
NC1=NC[C@@H](Cc2ccc(O)cc2)N1CCC12CC3CC(CC(C3)C1)C2	u	u
CCOC(=O)[C@]12Cc3c(cc(OC)c(OC)c3OC)[C@H]1N(C1CCCCC1)C(=O)c1cc(OC)ccc12	u	u
COc1ccc(OCCNC(=O)c2ccc(C)cc2)cc1	-3.9%	2.3%
COc1cc(/C=C(\C#N)C(=O)Nc2cccc(C(=O)O)c2)ccc1OCc1ccc(Cl)cc1	-11.0%	-1.7%
Cc1cc(=O)n(CCCc2ccccc2)[nH]1	-5.1%	-4.2%
Cc1cccc(NC(=O)NC2(C(=O)NCc3ccco3)CCCCC2)c1	-21.8%	0.5%
O=C(CNC(=S)N(Cc1ccccc1)Cc1cccs1)NCc1ccc(F)cc1	-29.1%	u
C=CCc1ccc(OC(=O)NC2CCCCC2)c(OC)c1	-13.8%	-4.9%
COc1cc(C(CC(=O)NCc2ccccc2)N2Cc3ccccc3C2=O)cc(OC)c1OC (configuration not stated)	-9.8%	-9.7%
CCOC(=O)CC(NS(=O)(=O)c1ccc2[nH]c3c(c2c1)CCCC3)c1ccccc1Cl (configuration not stated)	-9.7%[7.34 µM]	-5.4%[7.34 µM]
Cc1c(Cl)cccc1NC(=O)[C@@H](NC(=O)c1ccccc1Cl)C(C)C	i	-1.5%
CCOC(=O)c1ccc(NC(=O)CSc2nnc(CNC(=O)c3ccc(OC)cc3)n2CC)cc1	-6.6%	-12.7%
CCNS(=O)(=O)c1ccc(NC(=O)Cn2cc([N+](=O)[O-])cn2)cc1	3.2%	-5.6%
C=CCN1C(=O)/C(=C\c2ccc(Cl)cc2)N=C1SCC(=O)NC1CCCCC1	x	-6.4%
CCS(=O)(=O)Nc1ccc(-c2cc(-c3ccccc3)c3cc(C)ccc3n2)cc1	u	u
Cn1c(=O)c2c(nc(Oc3ccc4c(c3)OCO4)n2Cc2ccc(Cl)cc2)n(C)c1=O	-9.3%	-2.8%
Cc1ccc(C(=O)C2CCN(CC(=O)NCc3ccc(F)cc3)CC2)cc1	-2.8%	-16.0%
CC1(C)Cc2c(cnn2-c2ccc(F)cc2)C(NC(=O)c2ccco2)C1 (configuration not stated)	i	-8.8%
Cc1ccc(C(=O)Nc2scc(-c3ccccc3)c2C(=O)O)o1	-13.4%	-0.3%
CCCCCCN1C[C@@H](n2cc(C3CC3)nn2)[C@H](O)C[C@@H]1c1ccc(OC)cc1	-7.2%	u
CC(=O)OCC[C@H](NS(=O)(=O)OCC(Cl)(Cl)Cl)c1ccccc1	-32.2%	-9.0%
CCOC(=O)c1sc(/N=C/C2=C(O)CC(C)(C)CC2=O)c(C(=O)OCC)c1C	u	-10.9%
CCCNC(=O)c1c(Cl)cnn1-c1ccc(C)cc1	i	-1.5%
COCCNc1nc(N)c([N+](=O)[O-])c(NC2CCCCC2)n1	-14.3%	-19.4%
COc1ccc(NC(=O)CSc2nc3[nH]c(=O)cc(O)c3s2)c(OC)c1	-15.7%	-2.1%

More entries:
SMILES	VACV mCherry inh	Vaccinia Venus
Cc1ccc(OCC(=O)N(Cc2ccc(N(C)C)cc2)C2CCS(=O)(=O)C2)cc1C (configuration not stated)	-16.7%	-11.5%
CCOc1ccc(NC(=O)c2c(NC(=O)c3ccccc3Br)sc3c2CCC(C)C3)cc1 (configuration not stated)	-11.8%	-10.0%
CC(=O)Nc1ccc(NC(=O)C(C)NC(C)c2cccc3ccccc23)cc1 (configuration not stated)	-8.5%	0.0%
Cc1ccc2oc(=O)c3cnn(CC(=O)NCCC(C)C)c3c2c1	5.8%	12.0%
O=C(O)CC1(C(=O)O)CC2C=CC1C2 (configuration not stated)	i	3.9%
Cc1ccc(-c2nc(C3CCCN(S(=O)(=O)c4ccc(C(C)(C)C)cc4)C3)no2)cc1 (configuration not stated)	-10.1%	u
C(=N\c1nccs1)/Nc1nccs1	-8.0%	6.6%
O=C(Nc1c(C(=O)N2CCN(c3ccccc3)CC2)oc2ccccc12)c1ccc(Br)o1	i	-4.6%
CC[C@H](C)[C@H]1O[C@]2(CC[C@@H]1C)C[C@@H]1C[C@@H](CC=C(C)[C@@H](O[C@H]3C[C@H](OC)[C@@H](O[C@H]4C[C@H](OC)[C@@H](O)[C@H](C)O4)[C@H](C)O3)[C@@H](C)C=CC=C3CO[C@@H]4[C@H](O)C(C)=C[C@@H](C(=O)O1)[C@]34O)O2	u	u
Cc1ccc(N(C)S(=O)(=O)c2nnc(NC(=O)C3CCCCC3)s2)cc1	-11.9%[7.34 µM]	-5.4%[7.34 µM]
CCOc1ccc(CCNC(=O)COC(=O)/C=C/c2cccc(OC)c2)cc1OCC	-5.7%	-6.0%
C=C1CCN([C@@H](CC(C)C)C(=O)NCc2ccco2)S(=O)(=O)c2ccccc21	-16.2%	-24.0%
O=C(NC1CCCCC1)C1c2ccccc2C(=O)N1Cc1ccc2c(c1)OCO2 (configuration not stated)	-12.0%	0.1%
Cc1cc(C(=O)N[C@H](c2ccccc2)[C@@]2(C)C[C@@H]2[C@@H](C)C(=O)Nc2ccc3ccccc3c2)no1	-22.6%	u
O=C(CC1OCC2CCCN2C1=O)Nc1ccc([N+](=O)[O-])cc1 (configuration not stated)	-20.7%	-7.9%
COC(=O)C1CN(S(=O)(=O)c2ccc(NC(C)=O)cc2)CCS1 (configuration not stated)	-15.8%	-16.8%
Cc1ccc(C(=O)NC2CCCN(c3ccc(C(F)(F)F)cn3)C2)cn1 (configuration not stated)	-7.0%	-5.4%
COc1cc(CNC(=O)C2CCCC2)cc(OC)c1OC	-8.2%	3.9%
CCOc1ccc(NC(=O)CCC(=O)c2ccc(Br)cc2)cc1	-13.0%	-3.5%
Nc1nc(Nc2ccccc2)nc2ccccc12	i	-23.8%
CCOC(=O)/C(C#N)=C/c1ccc(OC)c(OC)c1	-1.8%	-11.7%
CC(=O)c1cccc(-c2ccnc3c2CC(C(=O)Nc2ccc(C(C)C)cc2)O3)c1 (configuration not stated)	46.0%[activator]	5.3%
Cc1n[nH]c(C)c1SCC(=O)Nc1ccc(F)cc1	x	-12.5%
COc1cc2cnc(CCO[C@H]3CCCCO3)cc2cc1OC	6.6%	-21.6%
COc1ccc2c(C=O)cn(C)c2c1	u	-25.4%
CC(=NNC(=O)c1ccncc1)c1ccc(Cl)c(Cl)c1	i	-10.0%
O=C(CN1C(=O)COc2ccccc21)NNC(=O)Nc1ccccc1F	-0.2%	1.2%
COc1cc(CCCN2C(=O)C(=O)NC[C@@H]2c2ccccc2)cc(OC)c1OC	i	-10.5%
Cc1ccc(NC(=O)c2oc3ccc4c(c3c2C)C(=O)CC(C)(C)O4)c(C)c1	0.8%	-7.5%
CCOc1ccc(N(C(=O)CNC(=O)c2ccco2)C(C(=O)NC2CCCC2)c2cccnc2)cc1 (configuration not stated)	i	-5.2%

Complete entries from above. Screens in order: VACV mCherry inh, Vaccinia Venus
COc1cc(CNC(=O)C2CCCC2)cc(OC)c1OC is listed with -8.2%, 3.9%
CCOc1ccc(N(C(=O)CNC(=O)c2ccco2)C(C(=O)NC2CCCC2)c2cccnc2)cc1 (configuration not stated) is listed with i, -5.2%
CC(=O)c1cccc(-c2ccnc3c2CC(C(=O)Nc2ccc(C(C)C)cc2)O3)c1 (configuration not stated) is listed with 46.0%[activator], 5.3%
Cc1ccc(C(=O)NC2CCCN(c3ccc(C(F)(F)F)cn3)C2)cn1 (configuration not stated) is listed with -7.0%, -5.4%
COC(=O)C1CN(S(=O)(=O)c2ccc(NC(C)=O)cc2)CCS1 (configuration not stated) is listed with -15.8%, -16.8%

Next section.
SMILES	VACV mCherry inh	Vaccinia Venus
CCN(C(=O)Cn1c(=O)oc2ccccc21)c1cccc(C(F)(F)F)c1	-22.5%	-22.7%
CCNC(=O)CCCN1C(=O)CCn2nc(-c3cccn3C)cc21	-10.8%	4.2%
N#CC1(NC(=O)COc2ccccc2[N+](=O)[O-])CCCCC1	-19.0%	-2.7%
Cc1ccc(C(=O)NCc2ccc(Cl)cc2)cc1S(=O)(=O)N1CCCCC1	u	u
CCOc1ccc(NC(=O)CSc2nnc(CNC(=O)c3c(F)cccc3Cl)o2)cc1	3.7%	1.3%
O=c1c(-c2ccccc2)coc2cc(O)cc(O)c12	-7.1%	-15.9%
CCOc1ccc(CCNC(=O)C2CCN(Cc3nc(-c4ccc(OC)c(OC)c4)oc3C)CC2)cc1OCC	0.1%	7.7%
C=CCn1c(C)c(C(C)=O)c(N2CCOCC2)nc1=S	x	4.7%
Cc1cc(Br)c(NC(=O)Cn2c([N+](=O)[O-])cnc2C)cc1C	i	-18.4%
CC(C)C[C@@H](CN1CCCC1CN1C(=S)NC[C@@H]1Cc1ccccc1)N1C[C@H](Cc2ccccc2)N(CC2CCCCCC2)C1=S (some centres not stated)	-5.2%	2.1%
Cc1nc2ccccc2nc1CN1CCN(Cc2ccc(F)c(F)c2)C(CCO)C1 (configuration not stated)	i	-12.4%
